PINK1 expr mod: changes PINK1 expression. PINK1 immunofluorescence, high-content cytometry, 24 h. hit rate 0.2% among 410,000. AID 624263. Potency, µM (titrated, usually from 76.6 µM), without a hit: top-dose activation (PINK1 increase), hits mostly activators; active = well fitted activation curve with a large enough effect; inconclusive = small, poorly fitted or top-dose-only effect; inactive = flat fitted curve, though single readings scatter; cell line not stated here;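 also: potency is read from the fitted curve at half-maximal effect; % of control where 0% means no effect; nearly all actives have a fitted effect of over 65% in size; a mitochondrial uncoupler was the plate control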
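A stable cell line was treated with compounds at 5 concentrations for 24 hours, with CCCP as control. PINK1 levels and mitochondrial localization were measured by immunofluorescence with mitochondrial, cell and nuclear markers after fixation, read by laser-scanning cytometry.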
TRPML1 inh: inhibitors of human TRPML1 channel. Q9GZU1. TRPML1-inducible cells, Ca2+ dye fluorescence, FDSS; stronger effect = lower value; inhibition of EC80 agonist-evoked calcium signal. activity change, negative = inhibition, % (concentration not given with the values). hit rate 0.02% among 390,000; in the data active means activity change below about -50%; inconclusive means about -30% to -50%; inactive means above about -30%;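 also: stimulus is agonist 54-4 at its EC80 concentration; % is scaled to controls: 0 for no effect and ±100 for the full control effect; compound concentration not given in the record; the text of the record puts the active cut at -80%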
Target sequence (Q9GZU1 whole entry, looked up): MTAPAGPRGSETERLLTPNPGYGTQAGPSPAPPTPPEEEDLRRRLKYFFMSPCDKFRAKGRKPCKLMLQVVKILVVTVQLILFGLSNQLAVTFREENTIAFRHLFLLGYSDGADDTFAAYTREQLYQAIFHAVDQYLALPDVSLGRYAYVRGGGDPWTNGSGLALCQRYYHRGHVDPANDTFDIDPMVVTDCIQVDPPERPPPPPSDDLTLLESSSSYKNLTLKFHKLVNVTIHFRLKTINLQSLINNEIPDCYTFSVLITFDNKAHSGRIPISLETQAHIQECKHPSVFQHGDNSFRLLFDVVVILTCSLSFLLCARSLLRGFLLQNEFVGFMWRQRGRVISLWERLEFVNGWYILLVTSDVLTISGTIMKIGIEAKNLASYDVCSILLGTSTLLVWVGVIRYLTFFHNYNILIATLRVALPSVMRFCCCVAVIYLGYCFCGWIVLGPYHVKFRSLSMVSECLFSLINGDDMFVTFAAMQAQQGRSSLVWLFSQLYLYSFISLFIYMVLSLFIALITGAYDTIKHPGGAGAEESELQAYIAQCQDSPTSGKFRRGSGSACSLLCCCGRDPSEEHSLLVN
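TRPML1-DL cells, Tet-induced overnight (~16 h, 37 °C) at 1,500 cells/well, were loaded with Ca8 no-wash dye plus quencher for 45-90 min at room temperature. Compounds were pinned during FDSS kinetic reading; agonist 54-4 at EC80 (4 uM final) then added.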
D2 agonist: activates the human D2 dopamine receptor; hit rate 0.084% among 360,000; DiscoveRx PathHunter D2 beta-arrestin, luminescence, 90 min; 100% = 57 uM dopamine signal; AID 624465; activation, % (test concentration not listed); P14416; in the data active = activation above about 40%; inconclusive = about 15% to 40%; inactive = below about 15%; also: compound concentration not given in the record; the text of the record calls up to 30% inactive
Target sequence (P14416 whole entry, looked up): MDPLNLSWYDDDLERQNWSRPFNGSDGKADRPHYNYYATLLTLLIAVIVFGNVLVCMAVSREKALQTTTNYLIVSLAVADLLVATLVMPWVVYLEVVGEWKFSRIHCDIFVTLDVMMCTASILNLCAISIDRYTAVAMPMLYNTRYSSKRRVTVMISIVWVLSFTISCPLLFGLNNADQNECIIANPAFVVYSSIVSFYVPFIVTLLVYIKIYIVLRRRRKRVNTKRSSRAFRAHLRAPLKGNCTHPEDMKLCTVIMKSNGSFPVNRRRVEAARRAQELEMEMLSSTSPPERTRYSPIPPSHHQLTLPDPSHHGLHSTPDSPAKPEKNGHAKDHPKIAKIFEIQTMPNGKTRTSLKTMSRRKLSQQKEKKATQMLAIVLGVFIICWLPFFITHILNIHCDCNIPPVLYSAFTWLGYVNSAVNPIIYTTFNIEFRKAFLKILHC
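Agonist mode: compounds alone added to overnight-plated D2 PathHunter cells for 90 min at 37 C, with 57 uM final dopamine (EC100) defining full response. Beta-arrestin recruitment detected by chemiluminescent reagent, read after 1 h at ambient temperature.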
TRPML1 ag: human mucolipin-1 channel agonism; Q9GZU1; activation, % (test concentration not listed); hit rate 0.12% among 410,000; TRPML1-expressing cells, Ca2+ dye fluorescence, FDSS; host cell line not named in the record; reference of the full effect not given here; in the data active = activation above about 50%; inconclusive = about 30% to 50%; inactive = below about 30%; also: 0% is about no effect; the text of the record puts the active cut at 80%
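Kinetic FDSS Ca2+ read in Tet-induced TRPML1-DL cells (ABD Ca8 dye plus quencher, 45-90 min RT loading): baseline, then compound, then 110 s agonist window; EC80 agonist 54-4 at 4uM final added afterwards for a 110 s antagonist window.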
Six1-Eya2 blk: blocks human Six1 binding to Eya2; activity change, % (no concentration beside the values); AID 651725; hit rate 0.56% among 360,000; AlphaScreen GST-Six1/His-Eya2 binding, biochemical; stronger effect = lower value; control for the full effect not named in the record; Q15475+O00167; in the data active = activity change below about -65%; inconclusive = about -30% to -65%; inactive = above about -30%; also: % is scaled to controls: 0 for no effect and ±100 for the full control effect; compound concentration not given in the record
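AlphaScreen with GST-Six1 and His-Eya2 (5X mix: 250 nM and 500 nM), glutathione donor and nickel acceptor beads; buffer 50 mM Tris pH 8.0, 300 mM NaCl, 1 mM TCEP; 1 h at 37 C in the dark.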
D2 potentiator: potentiates the human D2 dopamine receptor allosterically; potentiation, % (test concentration not listed); DiscoveRx D2 beta-arrestin cells, luminescence, 90 min; 100% = 57 uM dopamine signal; hit rate 0.23% among 360,000; P14416; AID 624464; active = potentiation of 50% or more; inconclusive = 30% to 50%; inactive = 30% or less;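 also: compound concentration not given in the record; tested on top of an EC20 dose of dopamine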
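D2 cells co-treated with compound plus 50 nM dopamine (EC20) for 90 min at 37 deg C to detect potentiation. Beta-arrestin recruitment was read as enzyme-fragment luminescence after 1 h at ambient temperature. Full response was set by 57 uM dopamine.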
Starred values were filed as active, the others as inactive; ? = inconclusive; / = not tested or not shown; [ ] = remark or other dose.

Every second line gives: PINK1 expr mod, TRPML1 inh, D2 agonist, TRPML1 ag, Six1-Eya2 blk, D2 potentiator
CCN(CC)Cc1cc(C(C)=O)ccc1O
  0.7%, -8, -1.9, 0.5, 2, -10
Cc1ccc(-c2c3c(=O)n(C)c(=O)n(C)c3cn2-n2cnnc2)cc1
  2.2%, 1, 0.4, -0.5, -4, -18
C/C(Cl)=C/Cn1c(SCc2ccc(Cl)cc2)nc2c1c(=O)[nH]c(=O)n2C
  0.0%, 17, 1.1, 1.1, 9, -13
Cc1cccc(-n2c(=O)c3c(C)c(C)sc3n(CC(N)=O)c2=O)c1
  0.4%, 8, -1.2, -0.6, 7, -9
Cc1nc2ccc(CCO)cc2s1
  2.4%, -8, -1.2, 0.5, -1, -14
O=C(NCCC1CCCC1)C1CCC(=O)N(CCCN2CCCC2=O)C1 (configuration not stated)
  0.4%, 15, -4.7, 0.9, 0, -3
CCc1ccc2nc(NC(=O)C3CSC4(C)CCC(=O)N34)sc2c1 (configuration not stated)
  1.0%, 4, -1.7, 2.1, -15, -66
O=[N+]([O-])c1ccc2c(c1)/C(=N\O)c1ccccc1-2
  -2.2%, 69, -6.1, 1.1, 0, -3
CCCc1[nH]n(-c2nc3ccccc3s2)c(=O)c1C=NCC1CCCO1 (configuration not stated)
  7.4%, 23, -1.7, 5.3, -2, 0
Cc1ccc2nc(C(C)(C)C)c(Cc3cccc(F)c3)n2c1
  13%, /, -7.1, -0.4, -12, -7
Cc1c2cnn(-c3ccccc3)c(=O)c2c(C)n1CC(=O)NCCc1ccc(Cl)cc1
  0.7%, -14, /, -0.4, /, /
COC(=O)N/N=C/c1ccc(OS(=O)(=O)c2ccc(C)cc2)c(OC)c1
  2.1%, -5, -2.0, 0.0, -18, -14
COc1ccc(C)cc1NC(=O)CN1C(=O)C2CC=CCC2C1=O (configuration not stated)
  0.4%, 23, -2.8, -0.6, -3, -6
O=C(CNC(=O)c1cccc([N+](=O)[O-])c1)OCCCC(=O)c1ccc(F)cc1
  0.1%, 5, 0.0, 1.5, -5, 2
COc1ccc2c(C)nc(N/C(N)=N/S(=O)(=O)c3ccc(C)cc3)nc2c1
  -0.1%, 16, 8.9, 2.8, -27, -4
CCCOc1ccc(/C(O)=C2/C(=O)C(=O)N(CCN(C)C)C2c2ccco2)cc1 (configuration not stated)
  1.5%, -2, -4.0, 0.1, -1, 10
Cc1ccc(S(=O)(=O)N2CCCCC2)cc1C(=O)NCCN1CCOCC1
  1.9%, -3, 1.4, -0.4, 7, 0
Cn1c(Nn2cnnc2)nc2ccccc21
  1.7%, 11, -2.0, -0.9, -1, 9
c1ccc(-c2nc3c4ccccc4ccn3c2Cc2ccsc2)cc1
  2.5%, -11, -4.4, 0.7, 6, -9
Cc1cc(C)cc(C(=O)O/N=C(\N)c2ccc(Br)cc2)c1
  ?, -16, ?, 0.7, 3, 64*

Marked active in D2 potentiator, among the entries above:
| molecule | PINK1 expr mod | TRPML1 inh | D2 agonist | Six1-Eya2 blk | D2 potentiator |
| --- | --- | --- | --- | --- | --- |
| Cc1cc(C)cc(C(=O)O/N=C(\N)c2ccc(Br)cc2)c1 | ? | -16 | ? | 3 | 64* |

Remaining list, next part.
Every second line gives: PINK1 expr mod, TRPML1 inh, D2 agonist, TRPML1 ag, Six1-Eya2 blk, D2 potentiator
Cc1cc2cc(C)c(NCCNC(=O)c3ccccc3Cl)nc2cc1C
  26%, -9, -5.1, 4.9, -5, -8
CCNC(=O)Nc1ccc(-n2nc(C)c(C(=O)OCC)c2C)nc1
  0.8%, 32, 1.9, 0.0, -1, -5
O=C(CN1C(=O)/C(=C/c2cccc(Br)c2)SC1=S)NC1=NCCS1
  9.9%, 2, -2.9, -0.4, 5, -4
O=C(CCn1ccc2cc(S(=O)(=O)N3CCCC3)ccc21)NCc1ccccc1Cl
  -1.6%, 7, /, 0.8, /, /
CCC(=O)Nc1ccc(-c2nc3ncccc3o2)cc1C
  -1.7%, 35, /, -0.2, /, /
COCCNC(=O)C1(C)CCCN(CCS(=O)(=O)c2ccc(C)cc2)C1 (configuration not stated)
  -0.3%, -6, -2.9, 0.2, 0, -7
CC(C)(C)NC(=O)CN(C(=O)CCC(=O)Nc1nccs1)c1ccc2c(c1)OCCO2
  0.7%, 30, -0.2, -0.6, 2, -8
COc1ccc(-n2c(=S)[nH]c3ncccc3c2=O)cc1
  0.1%, /, -6.5, /, 2, -3
CC(CN1CCCCC1)OC(=O)c1ccc(Cl)cc1Cl (configuration not stated)
  -0.7%, -1, -9.6, -0.8, 10, -52
CC(Oc1ccccc1)C(=O)N1CCN=C1SCc1cccc(F)c1 (configuration not stated)
  1.3%, /, -4.5, /, 5, -3
CCOC(=O)C1CCN(C(=O)c2c(-c3ccccc3)noc2C)CC1
  -0.1%, -2, 5.4, -0.6, 11, -3
CCOC(=O)c1c(C)[nH]c(C)c1S(=O)(=O)N(C)CC(=O)N1CCN(c2ccc(OC)cc2)CC1
  0.4%, -2, -1.7, 0.6, 2, -7
COc1ccc(S(=O)(=O)NCCCN2CCOCC2)c2ccccc12
  5.2%[38.3 µM], 41, -1.8, 0.7, 4, -10
COc1ccc(CCN2CC(C(=O)Nc3ccc(S(C)(=O)=O)cc3)CC2=O)cc1OC (configuration not stated)
  -0.5%, -4, 3.0, 0.0, 3, -18
Cc1cc2cc(CNC(=O)c3ccc(S(=O)(=O)N4CCCCC4)cc3)ccc2[nH]1
  -0.1%, -1, 1.8, 0.0, 0, -1
CN(Cc1ccccc1)C(=O)c1cccc(C(=O)N(C)Cc2ccccc2)c1
  1.1%, 11, -4.2, 1.5, 6, -3
Cc1cc(C)n(CC(=O)NCc2ccccc2)c(=O)c1C#N
  0.0%, 1, -5.0, -0.1, 3, -17
O=C(O)c1ccccc1NC(=O)c1ccccc1Nc1ccccc1
  1.0%, 16, -1.7, 2.5, -15, -9
CCOc1ccc(NC(=O)Cn2nnc(C(=O)NCc3ccco3)c2N)cc1
  13%, -7, -0.9, -0.3, 0, 3
COC(=O)c1sc(NC(=O)c2cc(-c3ccccc3)nc3ccccc23)c(C#N)c1C
  5.6µM*, -6, -2.3, -0.5, -15, -2

Next structures:
Every second line gives: PINK1 expr mod, TRPML1 inh, D2 agonist, TRPML1 ag, Six1-Eya2 blk, D2 potentiator
CCOCCCN1CN(S(=O)(=O)c2ccc(Cl)cc2)c2nc3ccccc3nc21
  0.7%, 12, -1.1, -0.6, -2, 6
COc1ccccc1NS(=O)(=O)c1cc(NC(=O)c2ccc(NC(C)=O)cc2)ccc1N1CCOCC1
  2.2%, -4, 2.8, 1.4, -12, -7
CC(NC(=O)N(Cc1ccccc1)Cc1ccc2c(c1)OCO2)(C(F)(F)F)C(F)(F)F
  -2.0%[38.3 µM], 37, -3.6, 0.7, 0, -19
COc1ccc(CN2CCCC(C(=O)c3ccc4c(c3)OCO4)C2)c(F)c1 (configuration not stated)
  0.0%, -5, -4.7, -0.5, -13, -30
CCOC(=O)N1CCC(NC(=O)C(Cc2ccccc2)NC(=O)c2ccco2)CC1 (configuration not stated)
  -2.2%, -15, -0.7, 1.4, 4, -20
O=C(Cn1[nH]c(=O)c2ccccc2c1=O)OCC(=O)c1ccc(F)c(F)c1
  1.6%, -21, -4.8, -1.4, 3, -11
CC(C)C12CN3CC(C(C)C)(CN(C1)C3(C)C)C2=O
  2.2%, 22, -2.6, -0.2, 4, 5
CS(=O)(=O)N1CCN(c2ccccc2NC(=S)NC(=O)c2cccs2)CC1
  3.1%, 1, 1.8, -0.3, 0, 0
COc1ccc(-c2ccnc3cc(C(=O)O)nn23)cc1
  4.2%, -4, -2.0, -0.2, -3, 5
COc1cccc(OCC(=O)NNC(=O)C(=O)N2CCCC2)c1
  0.6%, 38, -2.2, 0.6, -1, -12
Cc1ccc(NS(=O)(=O)c2ccc(C)c(C(=O)N3CCN(C)CC3)c2)cc1
  -0.9%, -3, -1.9, -0.1, -1, 15
Cc1nc(NC(=O)C(C)(C)C)sc1C(=O)Cn1cc(-c2ccc(C(C)(C)C)cc2)nn1
  2.0%, /, /, -0.1, 4, /
O=C(NCCCn1ccnc1)c1ccc2nccnc2c1
  0.6%, -7, -3.0, 1.6, -17, -7
Cn1c(=O)oc2cc(S(=O)(=O)NCc3ccc(Cl)cc3)ccc21
  1.3%, -20, -0.5, 0.6, 6, -7
O=C(COC(=O)C1CCN(c2ccc(C(F)(F)F)cn2)CC1)Nc1ncc(Cl)cc1Cl
  2.9%, 3, -1.4, 2.1, 6, -1
O=C(CCC(=O)OCC(=O)c1ccc(Br)cc1)Nc1cccc2cccnc12
  -1.2%, -1, -4.6, 0.3, 4, -14
O=C1O[C@@H](c2ccccc2)C[C@@H](O)[C@H](O)CCCc2ccccc21
  1.6%, /, /, 0.4, -8, /
COc1ccc(S(=O)(=O)N2CCOCC2)cc1NC(=O)C1CC1
  -0.9%, 48, -3.6, 0.7, 0, -4
COC(=O)CNC(=O)C(NC(=O)c1ccc(Cl)cc1)C(C)C (configuration not stated)
  -1.6%, -4, -4.5, -0.4, -1, -7
Cc1ccccc1OCc1nc2ccccc2c(=O)n1N
  12%, 33, -3.6, -0.7, 1, -8

(more compounds)
Every second line gives: PINK1 expr mod, TRPML1 inh, D2 agonist, TRPML1 ag, Six1-Eya2 blk, D2 potentiator
Cc1ccc(S(=O)(=O)N2CCN(C(=O)CNC(=O)c3sc4ccccc4c3Cl)CC2)cc1
  -1.1%, 10, 6.1, 2.0, 5, 12
Cc1ccc(CSCCNC(=O)CCSc2ccccc2)cc1
  -0.8%, 13, -4.4, 3.4, 2, 1
Cc1ccccc1-c1cc2nc(NCCOc3ccccc3Cl)n(C)c(=O)c2s1
  6.6%, /, 11, -0.6, 1, -1
COc1ccccc1-c1cc(=O)c2c(O)ccc([N+](=O)[O-])c2o1
  1.3%, 7, -2.7, -0.6, -11, -11
O=C(Cc1csc(Nc2nc(=S)[nH]c3ccccc23)n1)NCc1ccccc1Cl
  ?, -1, -1.9, 1.6, 0, -11
CC1(C(=O)N2CCCCC2)CCN1C(=O)c1ccccc1CCc1ccccc1 (configuration not stated)
  -1.2%, 8, -2.0, -0.5, 0, -4
Cc1cc(-c2ccc(S(=O)(=O)N3CCCCC3)s2)on1
  2.5%, 18, 2.6, 5.0, 2, -7
O=C(Nc1ccc(Cl)c(Cl)c1)Nc1nc(-c2ccccc2)cs1
  15%, 1, 6.6, -0.7, 5, 18
CCC(=O)Nc1ccc2c(c1)ncn2-c1ccc(OC)cc1
  -1.6%, 7, 1.1, 1.4, -4, -9
N#Cc1ccccc1Sc1ccccc1C(=O)OCC(N)=O
  -1.4%, 34, -7.7, -0.5, 12, 1
CCCC(c1nnnn1C(C)(C)C)N1CCN(Cc2ccccc2)CC1 (configuration not stated)
  0.5%, -14, -6.3, 0.8, 4, -12
CCN(CC(=O)Nc1c(F)cccc1F)C(=O)c1cnc(C)cn1
  2.8%, 6, -2.5, 1.1, 2, -2
CC(=O)c1c[nH]c(C(=O)NC2CCCCCC2)c1
  0.0%, ?, -3.7, 4.4, -1, -12
O=C(O)C1C2C=CC(C3CC23)C1C(=O)N1CCc2ccccc21 (configuration not stated)
  -2.7%[38.3 µM], 41, 1.8, 0.4, -5, 11
